VDR inhibitor = Inhibitors of the vitamin D receptor (VDR): qHTS; VDR-SRC2-3 peptide fluorescence polarization, 2 h; actives 0.93% (n = 400,000); Potency, µM, for inactives: max response, negative = inhibition, usual class: inhibitors; Vitamin D3 receptor (Homo sapiens), P11473; active means well fitted inhibition curve with a large enough effect; inconclusive means small, poorly fitted or top-dose-only effect, or another doubt; inactive means no such curve, though single readings can be large or run the other way; further: series mostly up to about 120 µM
Target sequence (P11473 whole entry, looked up): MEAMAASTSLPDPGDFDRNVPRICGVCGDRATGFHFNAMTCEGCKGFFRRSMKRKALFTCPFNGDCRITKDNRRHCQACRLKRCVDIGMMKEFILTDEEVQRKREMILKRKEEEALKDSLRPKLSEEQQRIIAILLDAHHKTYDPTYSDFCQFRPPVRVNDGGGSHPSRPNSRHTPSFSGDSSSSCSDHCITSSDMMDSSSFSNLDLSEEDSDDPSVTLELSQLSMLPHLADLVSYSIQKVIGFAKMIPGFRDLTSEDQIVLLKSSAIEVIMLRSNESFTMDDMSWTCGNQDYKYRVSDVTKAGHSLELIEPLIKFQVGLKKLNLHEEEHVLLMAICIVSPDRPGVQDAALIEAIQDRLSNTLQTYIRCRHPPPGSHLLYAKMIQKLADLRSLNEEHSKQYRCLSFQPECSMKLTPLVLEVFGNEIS
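Fluorescence polarization assay measuring small-molecule disruption of VDR binding to the coregulator peptide SRC2-3. Compounds were pin-transferred (23 nl) into the reagent mix and incubated 2 h at room temperature before reading.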
* hit, by the source's call; ? = inconclusive; & = joins results of further samples. On the % scale 0 is the no-effect control and ±100 the full control effect; potency means the concentration at half of the fitted maximal effect. These rows are one share of the data (hit frequency here may not be typical).

compound | VDR inhibitor
COC(=O)c1c(NC(=O)c2nc3ccccc3s2)sc2c1CC(C)(C)NC2(C)C | -7.2%
O=C(Cn1ncc2c3ccccc3n(Cc3cccc(Cl)c3)c2c1=O)NCc1cccs1 | 6.4%
Cc1cc2n(n1)CCC(=O)N2Cc1ccc(C(=O)Nc2cccc(C(F)(F)F)c2)cc1 | -0.9%
COc1ccc(NC(=O)CN(C)C(=O)c2cn(-c3ccccc3)nc2-c2ccc(F)cc2)cc1 | -2.2%
Cc1c(NC(=O)COC(=O)c2ccccc2Cl)c(=O)n(-c2ccccc2)n1C | 1.9%
CCCCNC(=O)C(=O)N/N=C/c1ccc(OCC(=O)Nc2cccc(OC)c2)c(OC)c1 | -11.2%
CCN1CCN(Cc2c(O)ccc3c(=O)c(-c4ccccc4OC)coc23)CC1 | -5.3%
CC1(C)C[C@H]2C3=CCC4[C@@]5(C)CC[C@H](O)[C@](C)(CO)C5CC[C@@]4(C)[C@]3(C)C[C@H]3O[C@@H]1[C@H](O)[C@]32CO (stereo partly specified) | 6.3%
OC1(c2ccccc2)CCN(Cc2ccccc2)CC1 | -3.5%
CCn1cc(C2CC(=O)NC2=O)c2ccccc21 (stereo unspecified) | -11.0%
CCOc1ccc(-n2c(=S)sc3c(=O)n(-c4ccccc4)c(SCC(=O)O)nc32)cc1 | -9.2%
CCN(Cc1cccs1)C(=O)CN1C(=O)NC(c2ccccc2)(c2ccccc2)C1=O | -17.0%
Cc1ccc(O)c(NS(=O)(=O)c2cccc3nsnc23)c1 | -14.3%
CN(C)C=Nc1c(I)cc(I)c(CCC(=O)O)c1I | -26.5%
Cc1cc(C(=O)Nc2ccccc2C)n(-c2ccccc2)n1 | ?
Cc1cc2nc(N(Cc3cccnc3)C(=O)c3ccc(Cl)s3)sc2cc1C | 3.9%
COc1ccc(OC)c(CN2CCN(C(=O)c3cc(S(=O)(=O)N4CCOCC4)ccc3C)CC2)c1 | 14.5%
CCn1c(SCC(=O)Nc2sc3c(c2C#N)CCC(C(C)(C)C)C3)nnc1-c1ccco1 (stereo unspecified) | 0.1%
COCc1cc(C)nc(OCC(=O)N/N=C/c2ccc(C)o2)c1C#N | 13.4%
CCCCOC(=O)Cn1cnc2ccc(Br)cc2c1=O | -1.8%
COc1ccc(-c2nn(-c3ccccc3)cc2/C=C(/C#N)C(N)=O)cc1[N+](=O)[O-] | -21.2%
O=C(O)c1ccccc1N/N=C\c1ccnc2ccccc12 | -8.5%
Cc1ccc(S(=O)(=O)NC(CC(=O)O)c2ccccc2)c(C)c1 (stereo unspecified) | -4.3%
COc1ccc(C2N3CC4(C)CN2CC(C)(C3)C4)cc1OC (stereo unspecified) | -19.1%
CCOC(=O)c1cccc(NC(=O)c2sc3nc[nH]c(=O)c3c2C)c1 | 5.7%
CCCc1ccc(C(=O)/C=C/N(C)C)cc1 | 14.3%
O=C1CSC(c2cccs2)N1c1ccccc1 (stereo unspecified) | 8.8%
CCOCCCNc1nc(=S)[nH]c2cc(OC)c(OC)cc12 | 6.9%
Cc1nn(-c2ccccc2)c2c1C(c1ccco1)C(C#N)=C(N)O2 (stereo unspecified) | -23.1%
O=C(CCCc1ccccc1)Nc1ccnn1C1CCN(Cc2ccc(Cl)cc2)CC1 | -4.5%
CCc1cccc(NC(=O)c2cc(S(=O)(=O)N3CCCCCC3)cn2C)c1 | 11.5%
CCOc1cccc(Oc2ccc(C(F)(F)F)cn2)c1 | 6.9%
Cc1cc(C(F)F)n2nc(C(=O)Nc3cccc(C(F)(F)F)c3)nc2n1 | 0.2%
COCCN(CC(=O)NCC1CCCO1)C(=O)CCC(=O)Nc1cc(C)ccn1 (stereo unspecified) | 16.6%
Cc1cc(C)n2nc(C(=O)Nc3cc(S(=O)(=O)N4CCCCC4)ccc3C)nc2n1 | 7.8%
CN(C)c1ccc(Cc2ccc(N(C)C)cc2)cc1 | 7.9%
O=C(Cn1nc(-c2ccccc2)oc1=O)OCC(=O)c1ccccc1 | -4.2%
CNc1cc(C(F)(F)F)nc(-c2ccccn2)n1 | -7.8%
C=CCN(CC(=O)Nc1c(C)cccc1CC)C(=O)SCCC | -2.1%
CCOC(=O)N1CCN(CC(=O)Nc2ccc(Oc3ccccc3)cc2)CC1 | -1.1%
CC(=O)NS(=O)(=O)c1ccccc1 | -4.4%
c1cc[n+](CCCC[n+]2ccccc2)cc1 | -0.3%
CCOc1ccccc1OCc1nn2c(-c3ccc(C)cc3)nnc2s1 | -18.4%
COC(=O)Cc1c(O)ccn(Cc2ccc3c(c2)OCO3)c1=O | -21.7%
COc1ccc(OC(=O)NCCc2ccccc2)cc1 | -18.3%
CCNc1oc(COc2ccccc2F)nc1C#N | 4.3%
COc1cc(SC)ccc1C(=O)Nc1ccc(C)cc1 | -2.2%
CSCC[C@H](NC(=O)[C@@H]1Cc2ccccc2CN1)C(=O)NC1CCCC1 | 14.8%
Cc1nn(C)c(Cl)c1S(=O)(=O)N[C@@H](c1ccccc1)[C@]1(C)C[C@H]1[C@@H](C)C(=O)Nc1ccc2ccccc2c1 | -2.5%
Cc1ccc2nc(-c3ccc(C)c(NC(=O)Cc4ccccc4)c3)oc2c1 | -21.8%
COc1ccc(-n2nc(C(=O)NCC(=O)NCCCN3CCN(C)CC3)c3ccccc3c2=O)cc1 | -4.1%
COc1cccc(-c2ccc3c(N)c(C(=O)Nc4cc(F)ccc4F)sc3n2)c1 | 10.7%
CCCOc1ccc(-c2c(C(=O)N/N=C/c3ccccc3)nnn2-c2nonc2N)cc1 | 3.0%
CN(Cc1ccc(OC(F)F)cc1)C(=O)c1cccc(S(=O)(=O)N2CCN(c3ccccc3)CC2)c1 | -4.4%
C/C(=N\NC(=O)c1ccc(Cl)cc1)c1ccc2[nH]ccc2c1 | 6.7%
Brc1ccccc1-c1nnc(COc2ncnc3ccccc23)o1 | -16.7%
CCCCn1c(C23CC4CC(CC(C4)C2)C3)n[nH]c1=S | -9.6%
COCCn1nnnc1C(C(C)C)N1CCCC(C)C1 (stereo unspecified) | 1.6%
O=c1c2c(nc3cc(-c4ccccc4Cl)[nH]n13)CCS2 | 10.6%
CC(=O)/C(N)=N/Nc1cccc(Cl)c1 | 9.3%

Overlap with the part before: 4 compounds, then new ones.
| structure | VDR inhibitor |
| --- | --- |
| CCCCn1c(C23CC4CC(CC(C4)C2)C3)n[nH]c1=S | -9.6% |
| COCCn1nnnc1C(C(C)C)N1CCCC(C)C1 (stereo unspecified) | 1.6% |
| O=c1c2c(nc3cc(-c4ccccc4Cl)[nH]n13)CCS2 | 10.6% |
| CC(=O)/C(N)=N/Nc1cccc(Cl)c1 | 9.3% |
| CC1(CCc2ccccc2)NC(=O)N(CC(=O)Nc2ccc3c(c2)OCCO3)C1=O (stereo unspecified) | -23.2% |
| O=C(NCC(c1ccc(F)cc1)N1CCOCC1)c1cc(F)c(F)c(F)c1F (stereo unspecified) | 3.5% |
| NC(=O)COc1ccc(Nc2nnc(-c3ccc(O)cc3)c3ccccc23)cc1 | -3.5% |
| CCCCn1c(N)c(N(Cc2ccccc2OC)C(=O)c2ccc(N3CCCC3=O)cc2)c(=O)[nH]c1=O | 7.1% |
| CCN1CCN(Cc2c(OC)ccc3ccccc23)CC1 | -1.2% |
| CC1=C(C(=O)Nc2cccc(C(F)(F)F)c2)C(c2ccccn2)n2ncnc2N1 (stereo unspecified) | -0.7% |
| COc1cc(C(=O)NCc2nnc(SCC(=O)Nc3c(C)cc(C)cc3C)o2)cc(OC)c1OC | -7.0% |
| Cc1noc(C)c1S(=O)(=O)NCc1ccc2c(c1)OCO2 | -2.9% |
| CCCCC[C@H](O)/C=C/[C@@H]1[C@@H](CC(=O)CCCCC(=O)O)[C@@H](O)C[C@H]1O | 1.5%&-1.5% |
| CCn1cc(C(=O)NCCC(C)C)c(=O)c2cc(S(=O)(=O)N3CCCCC3)ccc21 | 12.9% |
| O=C1CNC(=S)N1CCOc1ccccc1 | 11.2% |
| C/C=C1\NC(=O)[C@H](CC(N)=O)N(C)C(=O)C([C@@H](C)O)NC(=O)C(CCCc2ccc(OC)cc2)NC(=O)[C@H](C(C)C)NC(=O)/C(=C\C)NC(=O)[C@H](O)[C@@H](C[C@@H](O)CCCCCCC)NC(=O)[C@H](C)NC(=O)CN(C)C(=O)[C@H](CCC(N)=O)NC1=O (stereo partly specified) | -29.0% |
| CCc1nc(SCC(=O)Nc2nnc(CC)s2)c2c(=O)n(C)c(=O)n(C)c2n1 | -18.4% |
| Cn1cc(Br)c(C(=O)N2CCc3ccccc32)n1 | -8.7% |
| O=C(NCC(=O)N1CCN(c2ccccc2O)CC1)c1cccs1 | -11.4% |
| N[C@@H](CS(=O)O)C(=O)O | 17.0%&3.7%&1.6%&0.5% |
| O=C1c2ccccc2C(=O)C1(CO)c1ccc(OC(F)F)cc1 | 8.0% |
| COc1ccccc1NS(=O)(=O)c1cccc(NC(=O)NCCCl)c1 | ? |
| CN(Cc1ccccc1)c1ncnc2sccc12 | 9.7% |
| Cc1ccc(S(=O)(=O)N2CCC(C(=O)Nc3ccncc3)CC2)cc1 | -3.0% |
| COc1ccc(/C=C2\N=C(c3c(-c4ccccc4)noc3C)OC2=O)cc1OC | 13.7% |
| COc1cccc(CNC(=O)c2cccc(NC(=O)CC3SC(N4CCCCC4)=NC3=O)c2)c1 (stereo unspecified) | 6.5% |
| COCc1c(C(=O)N/N=C\c2cccnc2)nnn1-c1nonc1N | -4.0% |
| Cc1ccc(N/C=C(/C#N)c2ccsc2)cc1 | 7.5% |
| CCN(C(=O)c1ccc2c(c1)OCO2)C1CCS(=O)(=O)C1 (stereo unspecified) | 13.1% |

Shown with each value named: part of the list above
> Brc1ccccc1-c1nnc(COc2ncnc3ccccc23)o1
  VDR inhibitor: -16.7%

> Cc1cc(C)n2nc(C(=O)Nc3cc(S(=O)(=O)N4CCCCC4)ccc3C)nc2n1
  VDR inhibitor: 7.8%

Continuation:
| structure | VDR inhibitor |
| --- | --- |
| COC(=O)c1c(C(=O)NCc2ccccc2)ncn1CC(O)COc1ccccc1 (stereo unspecified) | 8.8% |
| CN(C(=S)NC(=O)C1(C)CC1(Cl)Cl)c1ccccc1 (stereo unspecified) | 1.2% |
| CC(=O)c1ccc(Nc2ncnc3c2oc2ccccc23)cc1 | 13.4% |
| CN1CCN(Cc2c(O)ccc3c(-c4ccccc4)cc(=O)oc23)CC1 | 1.5% |
| CCOc1ccc2[nH]c(=O)c(C(c3nnnn3C3CCCCC3)N3CCN(C)CC3)cc2c1 (stereo unspecified) | 4.5% |
| Cc1ccc(S(=O)(=O)N2C[C@@H]3[C@H]4CC[C@H](C4)[C@@H]3[C@@H](C)[C@@H]2c2cn(Cc3ccccc3)c3ccc(F)cc23)cc1 | -13.8% |
| C=CCN1CCS(=O)(=O)N(Cc2ccccc2)[C@@H](C(C)C)C1=O | -19.6% |
| CC(=O)Nc1cc(S(=O)(=O)C(F)(F)F)ccc1Cl | -0.6% |
| O=C(CCS(=O)(=O)Cc1ccccc1)N1CCc2ccccc2C1 | -5.1% |
| CCN(CC(=O)Nc1ccccc1C(F)(F)F)C(=O)c1cccc(S(=O)(=O)N2CCN(C)CC2)c1 | 16.4% |
| CN(C)C(=O)c1cccc(-c2csc(N3CCC(C(N)=O)CC3)n2)c1 | -11.2% |
| COc1ccc(S(=O)(=O)Nc2cccc(-c3ccc(N4CCCCCC4)nn3)c2)cc1OC | -5.8%&-0.1% |
| O=C(COC(=O)c1cncc(Br)c1)NCc1ccc(Cl)cc1 | -11.4% |
| C[C@@H](C(=O)Nc1ccc2ccccc2c1)[C@H]1C[C@]1(C)[C@H](NC(=O)OCc1ccccc1)c1ccccc1 | -0.7% |
| CCOC(=O)N1CCC(NC(=O)c2ccc3c(c2)N(Cc2ccccc2)CCS3)CC1 | 5.2% |
| O=C(Nc1cc(Br)ccc1O)c1cnn2c(C(F)F)cc(C3CC3)nc12 | 4.5% |
| COc1ccc(CC(=O)Nc2nc(-c3cc(OC)ccc3OC)cs2)cc1 | -8.5% |
| O=c1c2cc(F)ccc2[nH]c(=S)n1CCCN1CCOCC1 | -4.1% |
| COc1ccccc1/C=C/C=C(\C#N)C(=O)NC(C)c1ccccc1 (stereo unspecified) | 5.0% |
| COc1ccc(OC)c(NC(=O)CN(C)S(=O)(=O)c2ccc(Cl)cc2)c1 | -13.4% |
| Cc1cc(NCCO)nc(N2CCOCC2)n1 | 2.6% |
| O=C(O)c1cccc(NC(=O)c2cn(-c3ccccc3)nc2-c2ccncc2)c1 | -10.2% |
| COC(=O)c1ccc(NC(=O)c2c(-c3ccccc3)c(-c3ccccc3)nn(C)c2=O)cc1 | -6.8% |
| CCCCCN(C(=O)CCC(=O)OCC(=O)c1ccc(C(C)CC)cc1)c1c(N)n(CCCC)c(=O)[nH]c1=O (stereo unspecified) | 3.4% |
| CS(=O)(=O)c1ccc(C(=O)OCC(=O)NC(=O)C2CCCCC2)cc1[N+](=O)[O-] | -26.9% |
| Cc1cc2c(c(=O)n1Cc1cccnc1)C(c1ccc(F)cc1)C(C#N)=C(N)O2 (stereo unspecified) | 15.6% |
| OCCN1CCOCCN(CCO)CCN(CCO)CC1 | 8.9% |
| Cc1ccc(-c2cc(C(=O)O)c3ccccc3n2)c(C)c1 | -19.2% |
| COC(=O)COc1ccc(S(=O)(=O)NCc2cccnc2)cc1 | -4.3% |
| COc1ccccc1C(=O)NC(=Nc1nc2ccccc2o1)NC(=O)c1ccccc1OC | 7.3% |
| COc1ccc(-c2noc(N3CCC(C(=O)Nc4ccccc4Cl)CC3)n2)cc1 | -7.1% |
| Cc1ccc(C(=O)OCC(=O)Nc2ncc(C(F)(F)F)cc2Cl)cc1NC(=O)c1ccco1 | 14.7% |
| Cc1sc2ncnc(Oc3ccc(-n4ccnc4)cc3)c2c1C | 3.0% |
| O=C(c1ccc(F)cc1)N1CCC(c2ccccc2)C1 (stereo unspecified) | -11.4% |
| CCOc1ccccc1C1C(C(=O)Nc2ccccc2)=C(C)Nc2c(C(=O)Nc3ccc(F)cc3)cnn21 (stereo unspecified) | 13.0% |
| CN(C)S(=O)(=O)c1ccc2[nH]cc(/C=C/c3nc4ccccc4c(=O)n3-c3ccccc3)c2c1 | -9.7% |
| CC(NC(=O)c1cccc(C(F)(F)F)c1)C(c1ccccc1)N1CCOCC1 (stereo unspecified) | -5.8% |
